# Compound activity as filed in PubChem.
# GIRK2 activ – GIRK2 channel activation | HEK293-GIRK2 thallium flux, Thallos fluorescence | calls only for hits at 25 µM | AID 1259325 | 63,000 compounds, 0.05% hits;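 active = among the strongest 0.2% of first-round signals and kept after retests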;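 note: first round at about 10 µM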
# Target sequence (P48051 whole entry, looked up): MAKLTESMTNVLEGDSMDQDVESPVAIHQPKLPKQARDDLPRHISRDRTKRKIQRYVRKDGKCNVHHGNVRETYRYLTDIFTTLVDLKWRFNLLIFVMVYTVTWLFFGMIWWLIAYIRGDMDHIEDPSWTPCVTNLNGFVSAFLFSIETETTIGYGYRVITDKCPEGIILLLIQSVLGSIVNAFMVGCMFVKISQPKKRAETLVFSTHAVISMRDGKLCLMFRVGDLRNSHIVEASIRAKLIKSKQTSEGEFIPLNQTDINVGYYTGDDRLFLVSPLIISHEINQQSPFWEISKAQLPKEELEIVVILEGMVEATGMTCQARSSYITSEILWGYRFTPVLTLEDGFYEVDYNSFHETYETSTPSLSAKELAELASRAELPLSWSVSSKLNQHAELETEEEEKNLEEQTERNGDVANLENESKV
# Calls only; i = inactive.
SMILES	GIRK2 activ
Cc1cc(C(=O)Nc2nc(-c3cc4ccccc4oc3=O)cs2)on1	i
CC(C)=CCc1c(O)cc(CCc2ccccc2)c(CC=C(C)C)c1O	i
C=CCn1c(C2CC(=O)N(c3ccc(C)c(Cl)c3)C2)nc2ccccc21 (centres undefined)	i
CCOc1ccccc1-c1nc(Cn2nnc(C(=O)Nc3ccc(OC)cc3OC)c2N)c(C)o1	i
COc1ccccc1OCCCC(=O)Nc1cc(Cl)cc(Cl)c1	i
CCCc1noc(Cn2cnc3c4cc(C)ccc4n(CC(=O)Nc4cc(C)ccc4C)c3c2=O)n1	i
COc1cccc2sc(N3CC(OC(=O)c4ccn(C)n4)C3)nc12	i
COc1ccc(Nc2ccc3c(=O)c(-c4ccc(OC)c(OC)c4)coc3c2)c(OC)c1	i
Cc1cc(NC(=O)C(c2ccccc2)n2cccc2)ccc1Br (centres undefined)	i
CC(=O)NC1C(=O)N(CCCOc2ccc(Cl)cc2)c2ccc(Cl)cc21 (centres undefined)	i
Cc1cc(C)c(S(=O)(=O)N2CCC(Cc3ccccc3)CC2)c(C)c1	i
COc1ccc(C(=O)NCc2sc(C)nc2C)cc1	i
O=C(Cn1cnnn1)Nc1cc(N2CCN(Cc3ccccc3)CC2)ncn1	i
COC(=O)c1ccc2c(=O)n(CCC(=O)NCCN3CCCCC3)c(=S)[nH]c2c1	i
CCCCCCC(O)C/C=C\CCCCCCCC(=O)OC (centres undefined)	i
Cn1c(=O)c2c(ncn2CC(=O)NCC2CCN(C(=O)c3ccoc3)CC2)n(C)c1=O	i
Cc1nn(C)cc1S(=O)(=O)NCc1ccc(Cl)cc1	i
COCCOCC1CCN(S(=O)(=O)c2cc(F)ccc2F)CC1	i
O=C(Cn1nc2c3cc(-c4ccc(F)cc4)nn3ccn2c1=O)Nc1ccc2c(c1)OCCO2	i
Cc1cc(C)c(NC(=O)Cn2nc3n(C)c(=O)c4c(c(-c5ccccc5)cn4C)n3c2=O)c(C)c1	i
Cc1ccccc1-n1ncc(C(=O)c2ccccc2)c1N	i
COc1ccc(S(=O)(=O)NCCc2csc(-c3ccccc3)n2)cc1F	i
Cc1ccc(Oc2nccn3c(=O)n(CC(=O)Nc4ccc(C)cc4Cl)nc23)cc1	i
COc1ccc(CC(=O)Nc2onc3c2CSC3)cc1	i
Cc1ccc(N2C(=O)CC(C3CCCC=C3N3CCOCC3)C2=O)cc1 (centres undefined)	i
COc1cccc(NC(=O)N2CCC3(CC2)OCCS3)c1OC	i
CCOc1ccccc1C(=O)NCc1cnn2ccccc12	i
Cc1nc(-n2nnc(C(=O)NCc3ccccc3F)c2C)sc1C	i
O=C(CN1CCN(c2ccccc2F)C1=O)NCc1ccccc1Cl	i
Cc1cc(O)c2c(CN3CCN(Cc4ccc5c(c4)OCO5)CC3)cc(=O)oc2c1	i
Cc1ccc(NC(=O)NCCNc2ccc(-n3cccc3)nn2)cc1C	i
O=C(/C=C/c1ccccc1Cl)Nc1ccc2c(c1)N(C(=O)C1CC1)CC2	i
Cc1ccnc(NS(=O)(=O)c2ccc(NC(=O)C(C)n3nc(-c4ccccc4)ccc3=O)cc2)n1 (centres undefined)	i
COCCN(Cc1ccncc1)C(=O)C1CCN(S(C)(=O)=O)CC1	i
CCN(CC)CCn1c(C)cn2c3c(=O)[nH]c(=O)n(C)c3nc12	i
CN(CC(=O)Nc1ccc(-n2nnn(CC(=O)NC3CC3)c2=O)cc1)S(C)(=O)=O	i
NS(=O)(=O)Cc1noc2ccccc12	i
COc1ccc(/C=C2\Oc3cc(OCC(N)=O)ccc3C2=O)c(OC)c1	i
O=C(CSCc1ccccc1)NCC1(CO)CC1	i
O=C(c1nnn(-c2ccccc2)c1-c1ccccn1)N1CCC2(CC1)OCCO2	i
Cc1ccc(NC(=O)Nc2ccc3c(c2)CCCN3C(=O)c2ccccc2)cc1	i
COc1ccccc1OCC(=O)NCCN1CCN(c2ccccc2OC)CC1	i
Cc1ccc(NC(=O)Cn2nc3ccc(S(=O)(=O)C(C)(C)C)nn3c2=O)cc1C	i
O=C1CCc2cc(NC(=O)c3ccc(Cn4ccnc4)cc3)ccc2N1	i
CCCCOc1ccc(C(=O)NCC2CCS(=O)(=O)C2)cc1 (centres undefined)	i
Cc1ccc(S(=O)(=O)N2CCN(c3cccc(C)c3C)CC2)cc1	i
COc1ccc(C2(CNC(=O)C3CCN(S(C)(=O)=O)CC3)CCOCC2)cc1	i
Cn1c(=O)[nH]c(=O)c2c1nc(N1CCN(CC(N)=O)CC1)n2C/C=C/c1ccccc1	i
COc1cc(-c2nnc(NC(=O)CCc3ccccc3)o2)cc(OC)c1OC	i
CCOc1ccc2ccccc2c1C(=O)N1CCN(Cc2nc3ccccc3n2C)CC1	i

# Pulled one by one from the list above, five records:
SMILES	GIRK2 activ
CCOc1ccc2ccccc2c1C(=O)N1CCN(Cc2nc3ccccc3n2C)CC1	i
Cc1ccc(NC(=O)Cn2nc3ccc(S(=O)(=O)C(C)(C)C)nn3c2=O)cc1C	i
O=C1CCc2cc(NC(=O)c3ccc(Cn4ccnc4)cc3)ccc2N1	i
Cc1ccc(NC(=O)Nc2ccc3c(c2)CCCN3C(=O)c2ccccc2)cc1	i
Cn1c(=O)[nH]c(=O)c2c1nc(N1CCN(CC(N)=O)CC1)n2C/C=C/c1ccccc1	i

# Next entries follow.
SMILES	GIRK2 activ
CC(C)(C)NC(=O)NC12CC3CC(CC(C3)C1)C2	i
COc1ccc(OCc2noc(CNC(=O)Cc3sc(C)nc3C)n2)cc1	i
NC(=O)Cc1ccc(NC(=O)NCCOc2ccccc2)cc1	i
O=C(CN1C(=O)c2ccccc2C1=O)N1CCN(C(=O)C2CC2c2cccs2)CC1 (centres undefined)	i
O=C(Cn1nc(-c2ccc(Br)cc2)ccc1=O)N1CCCCC1	i
Cc1cc(NC(=O)C(=O)c2c(C)[nH]c3ccccc23)n(-c2nc(-c3ccc(F)cc3)cs2)n1	i
COC(=O)Cn1c(=O)c2c(nc3n(-c4ccc(C)c(C)c4)c(C)c(C)n23)n(C)c1=O	i
CC(=O)c1cccc(Nc2c([N+](=O)[O-])c(=O)n(C)c3ccccc23)c1	i
N#Cc1nc(-c2ccc(S(=O)(=O)N3CCCCC3)cc2)oc1NCCCn1ccnc1	i
CC(C)(Oc1ccc(Cl)cc1)C(=O)NC1CC(=O)N(C2CC2)C1 (centres undefined)	i
O=C(NCc1cccs1)c1cn(CC(O)c2ccccc2)nn1 (centres undefined)	i
CCc1ccc(-c2cc(=O)[nH]c(SCc3nc(-c4cccc(OC)c4OC)no3)n2)cc1	i
Cc1cc2nn(CC(=O)N3CCN(c4ccccc4)CC3)c(=O)n2c(-c2ccccc2)n1	i
O=C(CCn1ccc(=O)[nH]c1=O)N1CCN(C(=O)C2CC2c2ccc3c(c2)OCO3)CC1 (centres undefined)	i
Cc1c(C(=O)NCCn2ncccc2=O)cnn1-c1ccccc1	i
CC(Cc1cccs1)NC(=O)C(=O)NCc1cccs1 (centres undefined)	i
CC(C)c1ccc(NC(=O)COc2cc(=O)n3ccccc3n2)cc1	i
O=C1CCSCC(C(=O)N2CCN(Cc3ccccc3)CC2)N1 (centres undefined)	i
O=C(/C=C/c1ccco1)Nc1nnc(-c2ccsc2)o1	i
CC(NC(=O)c1ccc(-n2cccn2)nc1)c1ccc(F)cc1 (centres undefined)	i
O=c1c(-c2ccccc2)coc2cc(OCc3ccc(F)cc3)ccc12	i
CC(=O)N(C)CC(=O)Nc1cnc(N(C)C)nc1	i
COc1ncccc1C(=O)N1CCN(c2nc3c(C(F)(F)F)cccc3s2)CC1	i
CC(C)CCn1c(=O)c2ccc(C(=O)NCC(C)C)cc2n2c(=O)n(C)nc12	i
COC(=O)Cn1c(=O)c2c(nc3n2CCCN3CCc2ccccc2)n(C)c1=O	i
O=C(Nc1cccc(C(F)(F)F)c1)c1csc(Nc2cccnc2)n1	i
Cc1c(Cl)cccc1S(=O)(=O)N1CCc2nc(NC(=O)c3ccco3)sc2C1	i
O=C(NCCCn1ccnc1-c1ccccc1)C1(c2ccccc2)CCOCC1	i
CC(C)(C)c1ccc(C(=O)N2CCN(c3cc(-n4cccc4)ncn3)CC2)cc1	i
CCc1cc2c(cc1=O)oc(=O)c1c[nH]c3c(sc4nc(C)cc(C)c43)c12	i
CCOc1ccc(/C=C/C(=O)Nc2cc(C)ccc2OC)cc1OC	i
COc1cc(C[C@@]2(O)COC(c3ccc(O[C@@H]4O[C@H](CO)[C@@H](O)[C@H](O)[C@H]4O)c(OC)c3)[C@H]2CO)ccc1O (some centres undefined)	i
CC(=O)N1CCN(C(=O)Cc2cc(=O)[nH]c(SCc3cccc(Cl)c3)n2)CC1	i
CC(NC(=O)C1CCN(c2nc3ccsc3c(=O)n2Cc2ccccc2)CC1)c1ccc(F)cc1 (centres undefined)	i
CCCn1c(=O)c2cc(Cl)ccc2n2c(SCC(=O)Nc3cc(F)ccc3F)nnc12	i
CCOc1ccccc1CNC(=O)c1cnc(OC)nc1	i
O=C(CCCSc1ccc(NC(=O)c2cccs2)nn1)NCc1ccccc1Cl	i
COc1cc(/C=C/C(=O)O[C@H]2[C@H](O)[C@@H](CO)O[C@@]2(CO)O[C@H]2O[C@H](COC(=O)c3ccc(O)cc3)[C@@H](O)[C@H](O)[C@H]2O)cc(OC)c1OC	i
COc1ccc(CCNC(=O)N(CCc2cccs2)C2CC2)cc1	i
COc1cc(Nc2nccc(-c3cnn4ncccc34)n2)cc(OC)c1	i
CCc1nc2sc(C(c3ccccc3Cl)N3CCN(Cc4ccccc4)CC3)c(O)n2n1 (centres undefined)	i
O=C(NCCS(=O)(=O)NCc1cccs1)c1ccc2c(c1)OCO2	i
CCOc1ccc(-c2noc(CN3C(=O)COc4ccc(C(C)(C)C)cc43)n2)cc1OC	i
Cn1c(CN2CCN(C(=O)c3ccc(F)cc3F)CC2)nc2ccccc21	i
Cn1cc(-c2ccco2)nc1CCNC(=O)C1(c2cccs2)CCCC1	i
COc1cccc2cc(C(=O)N3CCC(C(=O)Nc4nccs4)CC3)oc12	i
O=C(c1cccs1)N1CCN(c2ccc(-c3noc(C(F)(F)F)n3)cn2)CC1	i
CCCc1nnsc1C(=O)NCC1CCN(C(=O)c2ccncc2)CC1	i
Cc1cc(C(=O)Nc2nc(-c3cc4ccccc4o3)cs2)c(C)o1	i
COc1cccc2cc3c(c(O[C@@H]4O[C@H](CO[C@@H]5O[C@H](CO)[C@@H](O)[C@H](O)[C@H]5O)[C@@H](O)[C@H](O)[C@H]4O)c12)C(C)OC3=O (some centres undefined)	i

# (list continues)
SMILES	GIRK2 activ
CC(C)(C)c1nnc(SCc2ccccc2)n(N)c1=O	i
O=C(c1cc(Br)ccc1Cl)N1CCC(c2ccccc2)C1 (centres undefined)	i
CC(=O)Nc1ccc(SCCCC(=O)Nc2cccnc2)nn1	i
O=C(NCC1CCN(C(=O)c2ccoc2)CC1)c1cccc(C(F)(F)F)c1	i
CC(C)S(=O)(=O)c1ccc(CC(=O)N2C3CCC2COC3)cc1	i
O=c1cccnn1CCNS(=O)(=O)c1ccccc1C(F)(F)F	i
COc1ccc(S(=O)(=O)NCCNc2ccc(Nc3cccnc3)nn2)cc1OC	i
Fc1cccc(COc2ccc(Nc3ncnc4sc(-c5cccs5)cc34)cc2Cl)c1	i
CCCN(CCC)S(=O)(=O)CCNC(=O)c1ccc2c(c1)OCO2	i
Cn1c(=O)c2c(nc(N3CCOCC3)n2CCSc2nnnn2-c2ccccc2)n(C)c1=O	i

# The closing 6 entries of the part above come first, to join the parts.
SMILES	GIRK2 activ
CC(C)S(=O)(=O)c1ccc(CC(=O)N2C3CCC2COC3)cc1	i
O=c1cccnn1CCNS(=O)(=O)c1ccccc1C(F)(F)F	i
COc1ccc(S(=O)(=O)NCCNc2ccc(Nc3cccnc3)nn2)cc1OC	i
Fc1cccc(COc2ccc(Nc3ncnc4sc(-c5cccs5)cc34)cc2Cl)c1	i
CCCN(CCC)S(=O)(=O)CCNC(=O)c1ccc2c(c1)OCO2	i
Cn1c(=O)c2c(nc(N3CCOCC3)n2CCSc2nnnn2-c2ccccc2)n(C)c1=O	i
CCOc1ccccc1-n1c(C)cn2c3c(=O)n(CCOC)c(=O)n(C)c3nc12	i
O=C(c1cccs1)N1N=C(C2CC2)CC1c1cc2cc3c(cc2nc1Cl)OCO3 (centres undefined)	i
CC(C)c1ccc(S(=O)(=O)NCC2CCN(C)CC2)cc1	i
O=C(NCCC1=CCCCC1)C1(c2cccs2)CCCC1	i
C=CCOC(=O)COc1ccc2c(c1)O/C(=C\c1ccc(OC)c(OC)c1OC)C2=O	i
Cn1cc(-c2cccs2)nc1CCNS(=O)(=O)c1ccc(F)c(Cl)c1	i
Cn1cc(C2=C(c3cn(CCN)c4ccccc34)C(=O)NC2=O)c2ccccc21	i
Cn1c(CN2CCN(C(=O)c3n[nH]c4ccccc34)CC2)nc2ccccc21	i
Cc1ccc(S(=O)(=O)c2c(C)nn(C(C)(C)C)c2OC(=O)c2ccc([N+](=O)[O-])cc2)cc1	i
CC(C)c1ccc(OCC(=O)Nc2cc(N3CCN(c4ccccc4)CC3)ncn2)cc1	i
COc1ccc(C(=O)NC2CCN(C(=O)c3cn(-c4ccccc4)nn3)CC2)cc1OC	i
C/C(Cl)=C/Cn1c(SCc2ccc([N+](=O)[O-])cc2)nc2c1c(=O)[nH]c(=O)n2C	i
COc1ccccc1N1CCN(C(=O)Cn2ccn3nc(-c4ccc(C)cc4)cc3c2=O)CC1	i
O=C(Nc1cccc(Br)c1)C1CN(C(=O)COc2ccccc2F)C1	i
COCCN1CCC(CNC(=O)c2ccc(C(F)(F)F)cc2)CC1	i
Cc1cc(F)ccc1S(=O)(=O)NCC(O)c1ccoc1 (centres undefined)	i
O=C(c1ccc(C(F)(F)F)cc1)N1CCN(c2ncnc3c2nnn3-c2ccccc2)CC1	i

# This is a subset; the hit share may differ from the screen's.
